Screens as filed in PubChem BioAssay.
HCMV UL50-53 inh: inhibitors of HCMV UL50-UL53 interaction, biochemical, HTRF; HCMV UL50-UL53 nuclear egress complex (human cytomegalovirus); normalized percent inhibition; inhibition, % (concentration not given with the values); 0.15% of 190,000 active; AID 1918969, 2023;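 active = both replicates at 50% or more, plus weaker picks with an unusually low signal ratio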;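 note: stock transfer was 100 nL into about 20 µL; 0% = negative control wells and 100% = wells with untagged competitor protein; inactives centre near -12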
Sa growth inh: S. aureus growth inhibition at 42 and 30 °C, primary screen, LtaS inhibitor project, RN4220, two temperatures; relative growth, % (test concentration not listed); 0.53% of 170,000 active; OD600, 20 h, 42 °C; hits give low values; AID 720641, 2013;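 active = growth at 42 °C up to 50% and 20 or more points under that at 30 °C, or under 10% at both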;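 note: 300 nL library stock went into each well; scaled to the means of positive and negative controls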
GIV Gai3 FP: inhibitors of GIV peptide binding to Galpha-i3, primary screen, biochemical, fluorescence polarization, FITC-GIV GBA peptide, rat Galphai3. AID 1224905, 2016. 0.42% of 210,000 active. Guanine nucleotide-binding protein G(i) subunit alpha-3 (Rattus norvegicus), P08753. percent of control (FP), % (test concentration not listed). 90 min; hits give low values; scaled: aluminum fluoride 0%, vehicle 100%;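 active = replicate mean at 85% of control or lower, very high polarization wells dropped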;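 note: wells of about 15 µL received 100 nL stock; the first replicate is given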
Target sequence (P08753 whole entry, looked up): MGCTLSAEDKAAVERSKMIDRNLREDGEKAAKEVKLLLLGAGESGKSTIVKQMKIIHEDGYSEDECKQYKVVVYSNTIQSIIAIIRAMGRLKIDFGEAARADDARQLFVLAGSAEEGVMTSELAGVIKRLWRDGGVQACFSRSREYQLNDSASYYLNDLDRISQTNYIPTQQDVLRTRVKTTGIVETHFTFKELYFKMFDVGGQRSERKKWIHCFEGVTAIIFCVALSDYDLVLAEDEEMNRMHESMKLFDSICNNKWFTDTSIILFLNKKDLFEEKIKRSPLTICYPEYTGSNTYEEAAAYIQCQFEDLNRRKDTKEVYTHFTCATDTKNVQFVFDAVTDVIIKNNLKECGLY
Sa growth inh second temp: further read-out of Sa growth inh, marked with its call; relative growth, %; measured here: growth at 30 °C;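 optical density after 20 h as mean of two plates; 100% = untreated growth and lower means inhibition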
The depositor's hits bear a star; . = not tested or not shown; & = joins results of further samples.

SMILES | HCMV UL50-53 inh | Sa growth inh | Sa growth inh second temp | GIV Gai3 FP
O=C(COCc1cc(-c2ccco2)on1)NCc1ccccc1 | -31 | 97 | 90 | 103
CCSc1nnc(NC(=O)CSc2cn(CCNC(=O)c3ccc(OC)cc3)c3ccccc23)s1 | -27 | 95 | 84 | 100
Cc1cc(C)nc(NS(=O)(=O)c2ccc(N3C(=O)c4ccc(C(=O)O)cc4C3=O)cc2)n1 | -75 | 87 | 83 | 95
Oc1ccccc1-c1cc(-c2cccs2)[nH]n1 | 2 | 55 | 53 | 107
CCOC(=O)c1cc(-c2ccccc2)n(CC(=O)NC(C)c2ccccc2)c1C (stereo not given) | . | 119 | 74 | 102
CCOC(=O)c1c(-c2ccc(OC)cc2)cn2ccccc12 | -18 | . | . | 101
Cn1c(-c2ccccc2)c(C(=O)COC(=O)c2ccc(-n3cnnn3)cc2)c2ccccc21 | -26 | 97 | 82 | .
O=C(NCc1ccsc1)c1ccc2c(c1)OCCCO2 | -8 | 89 | 86 | 98
O=C(O)c1c(CNCCc2c[nH]c3ccccc23)c2ccccc2n1Cc1ccccc1 | . | 125 | 32 | 103
O=S(=O)(c1cccc(F)c1)N1CCC2(CC1)Nc1ccccc1-n1cccc12 | 5 | . | . | 102
O=C(Oc1ccc2c3c(c(=O)oc2c1)CCC3)c1ccccc1 | -5 | 106 | 95 | 103
CCOc1cccc2cc(C(N)=O)/c(=N/c3sc4c(c3C#N)CCCC4)oc12 | -12 | . | . | 107
CC(C)c1ccc(N2CC(C(=O)O)CC2=O)cc1 (stereo not given) | -4 | 115 | 86 | .
O=C(OCC(=O)C12CC3CC(CC(C3)C1)C2)C1=COCCO1 | -22 | 84 | 93 | .
O=C(/C=C/c1cccs1)Nc1ccc(-c2nnc3n2CCCCC3)cc1 | -82 | 126 | 87 | .
CCCS(=O)(=O)c1csc(C(=O)OC)c1N | -9 | 101 | 85 | 102
CCN(CC)Cc1nc2c(c(=O)[nH]1)C1(CCCC1)Cc1ccccc1-2 | 4 | 104 | 94 | 105
COc1ccc(NC(=O)COCC(=O)O)cc1OC | 27 | 109 | 101 | 98
Cc1cc2c(cc3n2CC(C)(C(=O)NC2CCCCC2)N(Cc2ccc(F)cc2)C3=O)o1 (stereo not given) | 0 | . | . | 102
CCS(=O)(=O)N1CCCC1c1ccc(C)cc1 (stereo not given) | -33 | . | . | 113
COc1cccc(-n2nnc3c(=O)n(Cc4ccc(C)cc4)cnc32)c1 | 2 | 102 | 83 | 100
O=C1CCCN1CCCNc1nc2ccccc2n2nnnc12 | . | 85 | 80 | 110
CCOC(=O)CC1=C(C(=O)OCC)C(c2cccc(Cl)c2Cl)C(C#N)=C(N)O1 (stereo not given) | 7 | . | . | 102
COc1ccc(-c2csc(NC(=O)CN3CCCC3c3cccs3)n2)cc1 (stereo not given) | -1 | 90 | 98 | .
Cc1noc(C)c1COC(=O)CCN1c2ccccc2Sc2ccccc21 | 9 | 133 | 103 | .
O=C(Nc1ccccc1)C1CCN(S(=O)(=O)c2ccc3[nH]c4c(c3c2)CCCCC4)CC1 | . | 102 | 93 | 103
Cc1ccc(-n2nc(N3CCCN(C(=O)C4CCC4)CC3)ccc2=O)cc1C | -66 | . | . | 101
CC(=O)Nc1ccc(S(=O)(=O)NC2CCCC2)cc1 | -4 | 104 | 86 | .
O=S(=O)(Nc1ccccc1OC(F)F)c1ccc2nnn(O)c2c1 | -7 | 104 | 99 | .
COC(=O)Cc1cn(-c2ncc(C(F)(F)F)cc2Cl)c2ccccc12 | 1 | . | . | 104
CCOc1ccc(NC(=O)CSc2nnc3scc(-c4ccc(Cl)cc4)n23)cc1 | -31 | 109 | 90 | 105
O=C(Oc1ccccc1)c1cc2cc(Br)ccc2oc1=O | . | 100 | 90 | 127
CCN1C(=O)C2C(c3cccs3)NC(C)(C(=O)OC)C2C1=O (stereo not given) | -28 | 97 | 86 | 104
CC(C)Oc1ccc(CNS(=O)(=O)c2ccc(-c3cc(C(F)(F)F)on3)s2)cc1 | . | 113 | 96 | 103
O=C(NCc1cccc(Br)c1)c1cccn1-c1nnc(N2CCOCC2)s1 | -20 | . | . | 111
O=C(NCCc1ccccc1)C1CC(=O)N(c2ccc(F)c(Cl)c2)C1 (stereo not given) | . | 116 | 76 | 104
CCOC(=O)Cn1c(=O)c2c(nc(N3CCOCC3)n2Cc2ccccc2)n(C)c1=O | -20 | 103 | 90 | 104
O=C(O)/C=C/c1ccc(I)o1 | 6 | 99 | 98 | .
CN(Cc1nc(-c2ccccc2)no1)C(=O)C12CC3CC(CC(C3)C1)C2 | -13 | 84 | 94 | 97
CSc1nccc2ccccc12 | -24 | 91 | 90 | 100
COCCN1C=C(C(=O)OC)C(c2ccsc2)C(C(=O)OC)=C1 | -42 | 92 | 92 | 103
Cc1cccc(C(=O)NCC(=O)OCc2ccc(F)cc2)c1 | -11 | 102 | 89 | .
NNC(=O)CCC(=O)Nc1ccccc1 | -9 | 106 | 86 | 104
Cc1cc(C)cc(OCCOCCn2c(-c3ccc(Cl)cc3)nc3ccccc3c2=O)c1 | -20 | 105 | 93 | 108
CC(C)(C)SCC(=O)Nc1cc(S(C)(=O)=O)ccc1Cl | -6 | 101 | 94 | .
Cc1nc(Cl)c(C(=O)N(C)c2ccccc2)c(C)c1Cl | 4 | 90 | 92 | .
O=c1oc2ccccc2cc1-c1cn2cc(Cc3ccccc3Cl)sc2n1 | . | 111 | 89 | 102
O=c1c2ccccc2n2c(=O)n(Cc3cccc(Cl)c3)nc2n1CCc1ccccc1 | -18 | . | . | 96
Cc1ccc(-n2nc(C)c3c(C)cc(=O)oc32)cc1C | -23 | 104 | 82 | .
NCCSCc1ccco1 | -42 | 88 | 38 | 116
COCC(C)NC(=O)Cn1nc(C)c(NC(=O)c2cc(-c3ccccc3F)no2)c1C (stereo not given) | . | 115 | 89 | 100
CCc1ccccc1-n1c(=O)oc2ccc(Cl)cc2c1=O | -27 | -0.8* | -0.8* | 98
CCC(/C=N/N1C(=O)c2ccccc2C1=O)CC | -37 | 108 | 96 | .
Fc1ccc(C(c2nnc(-c3ccccc3)o2)N2CCc3ccccc32)cc1 (stereo not given) | -8 | 106 | 91 | 106
Cc1c(C)c2c(c(C)c1O)CCC(C)(COc1ccc(CC3SC(=O)NC3=O)cc1)O2 (stereo not given) | -29&-29&-27&-27 | 91&91 | 86&90 | 97
CCc1ccc(C(c2ccccc2)c2c[nH]c3ccc(C)cc23)s1 (stereo not given) | -41 | 101 | 78 | 112
CC(=O)Nc1nc(SCc2ccccc2Cl)n[nH]1 | -8 | 109 | 76 | 104
Cc1ccccc1NC(=O)COc1ccccc1-c1nc(-c2ccccc2)no1 | -4 | . | . | 93
CCOC(=O)c1cc(-c2ccccc2)n(CC(=O)N(C)c2ccc(C)cc2)c1C | . | 77 | 83 | 108
O=C(Nn1cnc2ccccc2c1=O)C1CCCCC1 | . | 89 | 88 | 111

By substructure: the entries above containing a CF3 group (2)
SMILES | HCMV UL50-53 inh | Sa growth inh | Sa growth inh second temp | GIV Gai3 FP
COC(=O)Cc1cn(-c2ncc(C(F)(F)F)cc2Cl)c2ccccc12 | 1 | . | . | 104
CC(C)Oc1ccc(CNS(=O)(=O)c2ccc(-c3cc(C(F)(F)F)on3)s2)cc1 | . | 113 | 96 | 103

Next part:
SMILES | HCMV UL50-53 inh | Sa growth inh | Sa growth inh second temp | GIV Gai3 FP
Cc1c(-c2cccc(Cl)c2)nc2ccccc2c1C(=O)OCC(N)=O | 0 | 107 | 85 | .
Cc1ccc2oc(=O)c(-c3nc4ccc(C)cc4[nH]3)cc2c1 | . | 125 | 94 | 118
Clc1cccc(N2CCN(c3nc4ccccc4c4nc(-c5ccccc5)nn34)CC2)c1 | -32 | 94 | 87 | 104
CCC1CCCCN1C(=O)CSc1ncccc1C(=O)O (stereo not given) | 6 | 107 | 90 | 103
CCN(CC)S(=O)(=O)c1ccc(/C(O)=C2\C(=O)C(=O)N(CCOC)C2c2ccccc2F)cc1 (stereo not given) | -37 | 98 | 98 | 94
O=C(Cc1ccc(Cl)cc1)OCc1nnc(-c2ccccc2)o1 | 0 | 87 | 94 | .
O=C(Nc1ccc(-c2ccc(N3CCCC3)nn2)cc1)C(F)(F)F | -93 | 97 | 91 | 107
COC(OC)c1cc(=O)[nH]c(SCc2ccc(Cl)cc2)n1 | 1 | 103 | 77 | 99
Cc1cccn2c(=O)c(C=C(C#N)C#N)c(Sc3nc4ccccc4s3)nc12 | -39 | 103 | 103 | .
O=C(Cc1noc2ccccc12)Nc1ccc(F)cc1Cl | -14 | . | . | 104
CC(C)CCNC(=O)c1ccc2c(=O)n(-c3cccc(F)c3)c(SCC(=O)c3c[nH]c4ccccc34)nc2c1 | -18 | . | . | 111
Cc1ccc(CS(=O)Cc2ccc(C(=O)NC3CCCCC3)o2)cc1 (stereo not given) | -16 | 100 | 97 | 106
CC(CC(=O)O)CC(=O)Nc1ccc(F)cc1 (stereo not given) | 4 | 108 | 80 | 101
C=CCN(CC=C)Cc1c(C)[nH]c2ccc(OC)cc2c1=O | -4 | 95 | 96 | 109
COc1ccc(CCn2cnc3sc4c(c3c2=N)CCCC4)cc1OC | . | 103 | 84 | 103
O=C1c2ccccc2-c2n[nH]c(=O)c3ccc(N4CCCC4)c1c23 | -45 | 105 | 84 | 101
COC(=O)Cc1ccc(Oc2ncc(C(F)(F)F)cc2Cl)cc1 | 14 | . | . | 107
Cc1nn(Cc2ccccc2)c2sc(C(=O)OCC(=O)N(C)C)cc12 | -12 | 98 | 86 | .
Cc1ccc(NC(=O)CCn2cnc3ccccc3c2=O)cc1C | 0 | 98 | 92 | 100
Cc1cccc(-n2ncc3c(=O)[nH]c(SCC(=O)NCCC4=CCCCC4)nc32)c1 | -45 | 118 | 96 | .

Reprinted at random: four compounds from above, in no set order.
SMILES | HCMV UL50-53 inh | Sa growth inh | Sa growth inh second temp | GIV Gai3 FP
O=C1c2ccccc2-c2n[nH]c(=O)c3ccc(N4CCCC4)c1c23 | -45 | 105 | 84 | 101
CCN(CC)S(=O)(=O)c1ccc(/C(O)=C2\C(=O)C(=O)N(CCOC)C2c2ccccc2F)cc1 (stereo not given) | -37 | 98 | 98 | 94
Fc1ccc(C(c2nnc(-c3ccccc3)o2)N2CCc3ccccc32)cc1 (stereo not given) | -8 | 106 | 91 | 106
O=C(Cc1ccc(Cl)cc1)OCc1nnc(-c2ccccc2)o1 | 0 | 87 | 94 | .

Copied from the list.
In Sa growth inh second temp, CC(CC(=O)O)CC(=O)Nc1ccc(F)cc1 (stereo not given) is listed with 80
In GIV Gai3 FP, CC(C)CCNC(=O)c1ccc2c(=O)n(-c3cccc(F)c3)c(SCC(=O)c3c[nH]c4ccccc34)nc2c1 is listed with 111

Going on with the list.
SMILES | HCMV UL50-53 inh | Sa growth inh | Sa growth inh second temp | GIV Gai3 FP
c1ccc(NCc2nc3ccccc3n2CCOc2ccccc2)cc1 | -1 | 128 | 92 | 107
NC(=O)N1CCCC1C(=O)O (stereo not given) | -11 | 83 | 98 | .
CCSc1nc2ccccc2n1S(=O)(=O)c1ccccc1 | . | 96 | 96 | 101
COc1cc(OC)c(OC)cc1/C=C1\N=C(c2ccc(OC)c([N+](=O)[O-])c2)OC1=O | -14 | . | . | 101
O=C1Nc2ccccc2C12NCCc1c2[nH]c2ccccc12 (stereo not given) | -12 | 97 | 86 | 104
Cc1nn(C)c2nc(OC(C)C(=O)N3CCc4ccccc43)cc(C(F)(F)F)c12 (stereo not given) | -29 | . | . | 105
CCOC(=O)CCC1(CCC(=O)OCC)c2ccccc2-c2nc3ccccc3cc21 | 3 | 87 | 89 | .

3 compounds from above, sorted by SMILES length, largest number first:
SMILES | HCMV UL50-53 inh | Sa growth inh | Sa growth inh second temp | GIV Gai3 FP
Cc1nn(C)c2nc(OC(C)C(=O)N3CCc4ccccc43)cc(C(F)(F)F)c12 (stereo not given) | -29 | . | . | 105
O=C1Nc2ccccc2C12NCCc1c2[nH]c2ccccc12 (stereo not given) | -12 | 97 | 86 | 104
NC(=O)N1CCCC1C(=O)O (stereo not given) | -11 | 83 | 98 | .
